CBX7 inh = CBX7 chromodomain binding inhibitors, primary screen, biochemical, AlphaScreen. Chromobox protein homolog 7 (Homo sapiens), O95931. AlphaScreen His6-CBX7 / biotin-H3K27me3 peptide binding; hits give low values. normalised signal (fraction of DMSO) (test concentration not listed). 66,000 tested, 1.1% active. AID 1224903, 2016; in the data active = normalised signal below about 0.5;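 note: 100 nL library stock added to about 20 µL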
Target sequence (O95931 whole entry, looked up): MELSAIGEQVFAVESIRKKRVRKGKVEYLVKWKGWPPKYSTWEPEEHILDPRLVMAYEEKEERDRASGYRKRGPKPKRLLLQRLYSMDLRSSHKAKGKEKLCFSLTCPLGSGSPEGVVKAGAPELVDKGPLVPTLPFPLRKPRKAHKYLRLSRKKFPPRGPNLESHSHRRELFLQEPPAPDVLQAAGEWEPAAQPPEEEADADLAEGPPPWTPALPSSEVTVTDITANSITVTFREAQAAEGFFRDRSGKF
CBX7 inh z-score = recorded beside CBX7 inh, whose call it bears; z-score; measured here: z-score of CBX7 signal; some inactives read as strong as hits; reference of the scale not given here;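 same signal on another scale; lower means less binding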
* marks the source's active call; other numbers are inactive results.

SMILES	CBX7 inh	CBX7 inh z-score
Cc1ccc(S(=O)(=O)Nc2cc(Cl)c3oc4c(c3c2)C(=O)CC(C)(C)C4)cc1	0.935	-1.22
OC(COc1c(F)cc(Br)cc1F)CN1CCOCC1 (stereo not drawn)	1.04	0.89
COc1cccc(-c2cc(C(=O)N3CCc4ccccc4C3)no2)c1	0.978	-0.249
COC(=O)Cn1c(CN2CCOCC2)nc2c1c(=O)[nH]c(=O)n2C	1.04	1.31
COc1ccccc1-c1coc2cc(O)ccc2c1=O	1.11	1.88
O=C1c2ccccc2C(Nc2ccc(Cl)cn2)N1c1ccccn1 (stereo not drawn)	1.02	0.771
COCCNC(=O)CCN1C(=O)COc2ccccc21	1.01	0.483
Cc1ccc(-n2cc(C(=O)N3CCOCC3)c3ccccc3c2=O)cc1C	1.1	1.12
O=C1CN(C(=O)c2ccc3c(c2)OCO3)C(c2ccc(F)cc2)c2cc(F)ccc2N1 (stereo not drawn)	0.873	-2.3
Cc1c(C(=O)Nc2ccc(C(N)=O)cc2)sc2nc(-c3ccc(F)cc3)cn12	1.04	1.37
Cc1cc(C)n2c(Nc3ccccc3C)c(-c3ccccc3)nc2n1	0.913	-1.7
Cc1c(Cl)cccc1NC1c2ccccc2C(=O)N1c1ccccn1 (stereo not drawn)	1.03	1.11
CC(NC(=O)c1ccc2c(c1)N(Cc1cccc(F)c1)C(=O)c1ccccc1S2)c1ccccc1 (stereo not drawn)	0.974	-0.739
FC(F)(F)c1c2c(nc3c(-c4ccc(Cl)cc4)cnn13)CCC2	0.843	-2.91
Cc1ccc(N(C)C(=O)Cn2ncc3c2-c2ccccc2OC3)cc1C	0.898	-2.94
CC1CCN(C(=O)c2ccc(-c3nn(C)c(=O)c4ccccc34)cc2)CC1	1.22	1.97
COc1ccc(Cl)cc1NC(=O)c1oc2ccc(S(=O)(=O)N3CC(C)CC(C)C3)cc2c1C (stereo not drawn)	1	0.0682
CCOc1ccc(CNC(=O)c2ccc3nc(N4CCOCC4)sc3c2)cc1	1.02	0.519
O=C(NCCc1ccc(Cl)cc1)C1CCN(c2nnc(-n3cccc3)s2)CC1	0.988	-0.196
O=C(NCc1ccccn1)C1CCN(C(=O)c2cc3sccc3n2Cc2ccc(F)cc2)CC1	0.972	-1.13
COc1ccc(Nc2nnc(-c3ccc(C(=O)NCCO)cc3)c3ccccc23)cc1	0.97	-0.0825
Cc1ccc(S(=O)(=O)N(CC(O)CN2C(=O)NC(C)(C)C2=O)c2ccccc2[N+](=O)[O-])cc1 (stereo not drawn)	1.08	1.47
COc1ccc2c(c1)Cc1sc(NC(=O)c3ccccc3F)nc1-2	1.07	1
COc1ccc(C2CC(=O)N(CC(=O)NCc3ccccc3Cl)c3ccccc3S2)cc1OC (stereo not drawn)	0.811	-2.68
CCc1ccc(Nc2cc(C(=O)NC)c3ccccc3n2)cc1	0.979	-0.33
COc1cc(CN2CCN(Cc3ccccc3Cl)CC2)cc(OC)c1OC	0.809	-2.29
Cc1ccc2nc(Nc3nc4ccccc4c(=O)[nH]3)nc(C)c2c1	0.985	-0.403
FC(F)(F)c1nc(Nc2cccc3ccccc23)sc1-c1ccccc1	0.924	-0.726
COc1ccc(-c2nc3cc(C)ccn3c2NC(=O)c2ccc(F)cc2)cc1	0.685	-0.548
COc1cc(NCCCC(C)N)c2ncccc2c1 (stereo not drawn)	0.962	-1.36
O=C1CCCc2c1cc(C(=O)Nc1ccc(Br)cn1)c(=O)n2-c1ccccc1	1.06	0.636
Cc1ccc(C2CC(=O)c3cnc(NC4CCCC4)nc3C2)cc1 (stereo not drawn)	1.04	0.408
O=C(NCCCO)C(=O)NCc1cccnc1	0.985	-0.283
Cc1ccc(S(=O)(=O)NC(Cc2ccccc2)C(=O)O)cc1 (stereo not drawn)	1.09	0.855
O=C(NC1CCCc2ccccc21)c1ccc2c(c1)N(Cc1ccc(F)cc1)C(=O)CS2 (stereo not drawn)	0.94	-0.594
Cc1ccc(CSc2nnc(Cc3cc(=O)[nH]c(=O)[nH]3)n2-c2cc(C)ccc2C)cc1	1.1	0.217
COc1ccc(NC(=O)C2CCCN(S(=O)(=O)c3cccnc3)C2)cc1 (stereo not drawn)	1.01	0.00992
COc1ccc(CNC(=O)C2CCCN(S(=O)(=O)c3cccnc3)C2)cc1 (stereo not drawn)	1.03	0.0294
Cc1ccc(-c2nc3cc(NC(=O)c4ccc5c(c4)OCCO5)ccc3o2)cc1	0.994	-0.294
CCOc1ccccc1NC(=O)c1c(NC(=O)COc2ccccc2)sc2c1CCC2	1.08	2.58

A run of entries from further up, for reference:
SMILES	CBX7 inh	CBX7 inh z-score
Cc1ccc2nc(Nc3nc4ccccc4c(=O)[nH]3)nc(C)c2c1	0.985	-0.403
FC(F)(F)c1nc(Nc2cccc3ccccc23)sc1-c1ccccc1	0.924	-0.726
COc1ccc(-c2nc3cc(C)ccn3c2NC(=O)c2ccc(F)cc2)cc1	0.685	-0.548

As entered above.
`CC(NC(=O)c1ccc2c(c1)N(Cc1cccc(F)c1)C(=O)c1ccccc1S2)c1ccccc1` (stereo not drawn) in CBX7 inh is entered as 0.974
`CCc1ccc(Nc2cc(C(=O)NC)c3ccccc3n2)cc1` in CBX7 inh z-score is entered as -0.33
`COc1cc(CN2CCN(Cc3ccccc3Cl)CC2)cc(OC)c1OC` in CBX7 inh z-score is entered as -2.29

Additional records
SMILES	CBX7 inh	CBX7 inh z-score
Cc1cccc(OCC(O)Cn2cnc3cc(C)c(C)cc32)c1 (stereo not drawn)	0.0446*	-18*
OC(COc1ccc2ccccc2c1)Cn1ccnc1 (stereo not drawn)	0.503	-6.97
CCCN(CCC)CCCNC(=O)c1cnn2c(C)c(Cc3ccccc3)c(C)nc12	0.953	-1.04
CCc1cccc(NC(=O)C2CCN(c3nn4c(=O)cc(C)nc4s3)CC2)c1	1.22	2.1
Nc1nc2ccc(-c3nc4ccccc4o3)cc2s1	1.11	1.24
COc1ccc(C2CC(c3ccc(Cl)cc3)Nc3ncnn32)cc1 (stereo not drawn)	0.986	-0.493
CCC1CN(C(=O)CCC(=O)NCc2ccccc2Cl)c2cc(Cl)ccc2O1 (stereo not drawn)	0.857	-1.65
COCCCNC(=O)c1cc(Nc2ccc(C)c(C)c2)nc2ccccc12	1.08	2.24
COc1ccccc1Cc1noc(/C=C/c2ccc(C)cc2)n1	1.12	1.8
CC1CCc2c(C(=O)NCCc3c[nH]c4ccccc34)csc2C1 (stereo not drawn)	0.929	-2.78
CC1CCCC(NC(=O)CN2C(=O)CSc3ncccc32)C1C (stereo not drawn)	1.03	1.15
Cc1ccc(CNS(=O)(=O)c2ccc3c(c2)CCN3C(=O)C2CCC2)cc1	1.11	3.02
CCCCC(NC(C)=O)c1nc2ccccc2n1CCCC (stereo not drawn)	0.987	-0.13
COCCCNC(=O)c1cc(-c2cccnc2)nc2ccccc12	1.26	1.92
CCN1CCCC1CNC(=O)C1CCCN(c2nn3c(=O)cc(C)nc3s2)C1 (stereo not drawn)	0.612	-2.95
CCOC(=O)c1c(CC(C)C)csc1NC(=O)c1ccc(-c2ccccc2)cc1	1.01	0.486
CCCn1c(COc2ccc(C(C)(C)C)cc2)nc2ccccc21	1.07	0.711
CCN(C(=O)CCc1nc(-c2ccc(C)cc2)no1)c1cc(Cl)ccc1OC	1.05	1.78
Cc1cccc(NS(=O)(=O)c2ccc3nc(-c4ccccc4)[nH]c3c2)c1C	0.984	-0.0213
COCCN1Cc2cccc(C(=O)Nc3ccccc3C)c2C1=O	1.14	1.65
CCOC(=O)N1CCN(C(=O)c2cn(C3CCCC3)c(=O)c3c2c2ccccc2n3C)CC1	1.01	0.152
Cc1cc(NC(=O)CCN2CCN(c3ccccc3)CC2)no1	0.883	-1.79
COc1ccc(-c2csc(NC(=O)c3cccc(Oc4ccccc4)c3)n2)c(OC)c1	0.915	-1.55
COc1ccc(NC(=O)CC2C(=O)N(c3ccc(C)cc3)C(=O)N2Cc2ccc(F)cc2)cc1 (stereo not drawn)	1.11	1.07
CCCCNc1nc(SCC(=O)Nc2ccc(OCC)cc2)nc2ccccc12	0.972	-1.45
CCOc1ccccc1CN1C(=O)c2ccccc2C1C(=O)NC(C)CC (stereo not drawn)	1.18	2.31
COc1ccc(CC(=O)NCCc2cc3c(OC)ccc(OC)c3[nH]c2=O)cc1OC	1.06	2.54
Cc1cc(C)c2c(n1)sc1c(-c3ccccc3)onc12	1.09	2.34
O=C(CSc1nnc(-c2cccc(F)c2)n1-c1ccccc1)NC1CCCCC1	1.01	0.261
CCOc1ccc(S(=O)(=O)NCCO)cc1-c1nc2c(C(C)(C)C)nn(C)c2c(=O)[nH]1	1.01	0.0702
O=C(O)c1ccccc1-c1ccccc1C(=O)Nc1nc2ccccc2s1	1.03	0.634
CCc1ccc(CNC(=O)Cc2c(C(=O)O)[nH]c3ccc(Cl)cc23)cc1	1.13	1.27
O=C(C1CC1)N1CCc2cc(S(=O)(=O)NCc3cccnc3)ccc21	0.988	-0.359
Fc1ccc(CSc2nnc(-c3ccco3)o2)cc1	0.956	-0.693
CCOc1ccc(-n2c(CC)nc3c(cnn3-c3ccc(F)cc3)c2=O)cc1	0.904	-1.24
Cc1oc(-c2ccccc2F)nc1CS(=O)(=O)CC(=O)NC1CCCC1	1.07	1.7
O=C(NCc1ccccc1Cl)c1cc(=O)[nH]c2ccc(S(=O)(=O)N3CCCCCC3)cc12	1.03	0.291
CCOc1ccc(NC(=O)CCCc2cc(-c3ccc(OCC)cc3)on2)cc1	0.942	-0.251
COc1ccc(NC(=O)C2c3ccccc3C(=O)N3CCc4ccccc4C23)cc1OC (stereo not drawn)	0.915	-1.39
Cc1ccc2c(c1)C(c1ccccc1)N(C(=O)C(C)(C)C)CC(=O)N2 (stereo not drawn)	0.975	-0.721
COc1ccc(N2C(=O)CC(NCCc3ccc(OC)c(OC)c3)C2=O)cc1 (stereo not drawn)	1	0.103
Cc1cccc(-n2c(O)cnc2Nc2nc(C)cc(C)n2)c1	1.02	0.0866
COc1ccc(N2C(=O)c3ccccc3C2(O)c2ncc[nH]2)cc1 (stereo not drawn)	0.858	-2.18
CC1CCCN(C(=O)C2CCC(CNS(=O)(=O)c3cccc4cccnc34)CC2)C1 (stereo not drawn)	0.998	-0.0572
CCCNC(=O)CSc1nc2nc(C)c(Cc3ccccc3C)c(C)n2n1	0.946	-0.0935
O=C(c1cn(-c2ccccc2)nc1C12CC3CC(CC(C3)C1)C2)N1CCOCC1	1.08	0.857
COc1ccc(Cl)cc1Nc1nc(-c2ccncc2)cs1	0.858	-1.83
CCOc1ccc(NC(=O)CSc2nnc(Cc3cc(=O)[nH]c(=O)[nH]3)n2-c2ccccc2)cc1	1.05	1.85
Cc1cc(C)c(C)c(OCC(=O)N(Cc2nc(-c3ccccc3)no2)C(C)C)c1	1.01	0.215
COC(=O)c1ccc(NC(=O)c2cc3c(CO)cnc(C)c3oc2=O)cc1	1.05	1.57
CCOc1ccc(-c2nc(-c3ccc(OC)cc3)no2)cc1OCC	1.17	0.751
COc1ccc(CNC(=O)C2CCCN(Cc3nc(-c4cccs4)oc3C)C2)cc1 (stereo not drawn)	0.967	-1.42
O=C(NC1CCCC1)c1cc2sccc2n1Cc1ccc(Cl)cc1	0.967	-0.911
O=C(O)c1c(-c2ccncc2)csc1-n1cccc1	1.1	2.81
Cc1ccc(-c2ccc(=O)n(CC(=O)N3CCCCC3)n2)cc1	1.09	3.26
COCCNC(=O)c1ccc(Cl)c(NC2=NC3CS(=O)(=O)CC3S2)c1 (stereo not drawn)	0.937	-0.671
O=C(Cn1ccc2ccccc2c1=O)NCCC(=O)Nc1ccc2c(c1)OCCO2	1.01	0.37
Cc1cccc(NC(=O)CN2C(=O)CC(c3ccccc3)Sc3ccccc32)c1C (stereo not drawn)	1	0.00733
CNC(=O)c1cc2c(n(-c3ccc(Cl)cc3)c1=O)CC(C)(C)CC2=O	1.01	0.0242
CCOc1ccc2nc(N3CCC(C(=O)NC(C)c4ccccc4)CC3)sc2c1 (stereo not drawn)	0.926	-0.327

6 records drawn at random from the list so far, as already listed:
SMILES	CBX7 inh	CBX7 inh z-score
Cc1cc(C)c(C)c(OCC(=O)N(Cc2nc(-c3ccccc3)no2)C(C)C)c1	1.01	0.215
CCOc1ccc(-c2nc(-c3ccc(OC)cc3)no2)cc1OCC	1.17	0.751
COc1ccccc1-c1coc2cc(O)ccc2c1=O	1.11	1.88
CCCn1c(COc2ccc(C(C)(C)C)cc2)nc2ccccc21	1.07	0.711
O=C(NC1CCCC1)c1cc2sccc2n1Cc1ccc(Cl)cc1	0.967	-0.911
Cc1ccc(CSc2nnc(Cc3cc(=O)[nH]c(=O)[nH]3)n2-c2cc(C)ccc2C)cc1	1.1	0.217

Next part
SMILES	CBX7 inh	CBX7 inh z-score
CCN1CCN(C(=O)c2cc3c(s2)-c2c(C)cccc2OC3)CC1	1.01	0.396
Cc1ccc(CN2C(=O)c3ccccc3C2C(=O)NCCCN2CCCCC2C)cc1 (stereo not drawn)	1.14	1.05
CCN(CC)S(=O)(=O)c1ccc2c(c1)N(CC(=O)N1CCC(C(N)=O)CC1)C(=O)CO2	1.16	3.81
Cc1oc(-c2ccc(Cl)cc2)nc1C(=O)NCCN1CCOCC1	1.03	0.0868
COc1cccc(OC)c1C(=O)Nc1nc(-c2ccc(C)cc2)c(C)s1	0.858	-3.02
Cc1ccc(Cl)cc1NC(=O)CC1NC2CCCCC2NC1=O (stereo not drawn)	0.951	-0.626
Cc1cccc(C2(c3cccc(C)c3)CC2C(=O)Nc2ccc(F)cc2)c1 (stereo not drawn)	1.07	2.37
O=C1CCCN1CCCNc1ncnc2c1c(-c1ccccc1)cn2-c1ccc(Br)cc1	0.977	-0.645

Whole records, quoted from the list. Screens in order: CBX7 inh	CBX7 inh z-score
Listed for CCN(CC)S(=O)(=O)c1ccc2c(c1)N(CC(=O)N1CCC(C(N)=O)CC1)C(=O)CO2 : 1.16	3.81
Listed for COc1cccc(OC)c1C(=O)Nc1nc(-c2ccc(C)cc2)c(C)s1 : 0.858	-3.02
Listed for O=C1CCCN1CCCNc1ncnc2c1c(-c1ccccc1)cn2-c1ccc(Br)cc1 : 0.977	-0.645
Listed for Cc1ccc(CN2C(=O)c3ccccc3C2C(=O)NCCCN2CCCCC2C)cc1 (stereo not drawn) : 1.14	1.05
Listed for Cc1ccc(Cl)cc1NC(=O)CC1NC2CCCCC2NC1=O (stereo not drawn) : 0.951	-0.626

An excerpt; rates above refer to the full screens.
